Screens: PubChem, National Center for Advancing Translational Sciences (NCATS)
N370S GC mod = inhibits or activates N370S mutant glucocerebrosidase. Potency, µM (top dose mostly 59.4 µM), for the others: at the highest dose activity change, negative = inhibition, actives largely listed as inhibitors. 330,000 compounds, 0.092% hits. N370S GC spleen homogenate, 4MU-glucoside fluorescence. P04062;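 note: 0% = full enzyme activity and -100% = no enzyme basal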
FEN1 inhibitor = human FEN1 inhibition | P39748 | Recombinant FEN1 flap cleavage, fluorescence, 15 min | Potency, µM (titrated, usually from 114 µM), inactives show at the top dose activity change, negative = inhibition, usual class: inhibitors | 390,000 compounds, 0.35% hits | AID 588795; note: nearly all actives have a fitted effect of over 65% in size
Target sequence (P39748 whole entry, looked up): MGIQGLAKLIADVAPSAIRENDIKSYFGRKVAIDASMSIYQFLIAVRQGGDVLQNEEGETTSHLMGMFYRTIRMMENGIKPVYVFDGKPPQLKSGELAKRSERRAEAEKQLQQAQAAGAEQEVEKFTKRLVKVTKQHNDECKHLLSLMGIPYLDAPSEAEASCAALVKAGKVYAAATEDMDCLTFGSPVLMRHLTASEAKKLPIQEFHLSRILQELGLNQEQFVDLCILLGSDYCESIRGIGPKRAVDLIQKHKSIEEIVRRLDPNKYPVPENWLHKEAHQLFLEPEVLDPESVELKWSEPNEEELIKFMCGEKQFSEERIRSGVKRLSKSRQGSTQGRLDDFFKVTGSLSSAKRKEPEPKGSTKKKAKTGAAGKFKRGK
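Read-out was taken twice, immediately and after 15 min, following addition of 50 nM substrate to 10 nM FEN1 that had sat with test compound for 15 min at room temperature. Curves came from a four-parameter Hill model.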
Numbers without * were called inactive; ? = inconclusive; · = not tested or not shown; & = joins results of further samples; [ ] = dose if it differs, or a comment. Calls come from the whole dose curve; as a rule, active = well fitted curve in the direction sought with a large enough effect; inconclusive = small, poorly fitted or top-dose-only effect, or another doubt; inactive = no such curve, though single readings can be large; an effect the other way counts as inactive or inconclusive. Unless noted, % is set by controls: 0 for no effect and ±100 for the full control effect; potency is the fitted concentration of half-maximal effect.

1	Cc1oc2c(c1C(=O)NCc1cccc(Br)c1)C1=NCCN1C=N2
2	S=C(Nc1cccc2ccccc12)NN1CCOCC1
3	CCCCSCCCNC(=S)Nc1ccccc1C
4	CCc1nc(NCCN2CCOCC2)c2oc3ccccc3c2n1
5	C=CCN=C1S/C(=C\N(C)C)C(=O)N1S(=O)(=O)c1ccc(C)cc1
6	COc1cccc(C2C3=C(CC(C)(C)CC3=O)OC(N)=C2[N+](=O)[O-])c1 (centres undefined)
7	CCOC(=O)c1c(C)oc2c1c1c(c3ccccc32)OCN(CCCC(=O)O)C1
8	CCn1cc(Cl)c(C(=O)Nc2nc3ccccc3n2CCN2CCCCC2)n1
9	COc1cc(C(=O)N(Cc2ccc(F)cc2)C2CCS(=O)(=O)C2)cc(OC)c1OC (centres undefined)
10	O=C(O)CC1(c2ccccc2)C(=O)c2ccccc2C1=O
assay / entry	1	2	3	4	5	6	7	8	9	10
N370S GC mod	·	6.0%	-22.8%	-1.0%	·	2.5%	7.9%	-4.7%	-6.4%	12.9%
FEN1 inhibitor	-4.3%	5.1%	-2.3%	9.1%	-1.9%	1.7%	-31.0%	-13.5%	-13.9%	-0.2%

11	CCC1CCCCN1C(=O)CCNS(=O)(=O)c1ccc2c(c1)oc(=O)n2C (centres undefined)
12	CCCNC(=O)C(Cc1ccccc1)NC(=O)Cc1ccccc1 (centres undefined)
13	CCOC(=O)N1CCC(n2c(=S)[nH]c3cc(OC)c(OC)cc3c2=O)CC1
14	O=S(=O)(c1ccc(N2CCOCC2)nc1)N(Cc1ccccn1)Cc1ccccn1
15	COc1ccc(OC)c2[nH]c(=O)c(CCNC(=O)C3CCCCC3)cc12
16	CCOc1ncccc1C(=O)Nc1cccc(S(=O)(=O)N2CCCCC2)c1
17	O=C(N/N=C/c1ccc([N+](=O)[O-])o1)c1cc2ccccc2o1
18	O=C(CCCC(=O)N(CC(=O)NC1CCCCC1)Cc1ccc2c(c1)OCO2)Nc1ccccn1
19	CCCSc1nnc(-c2ccccc2NC(=O)CC)c(=O)[nH]1
20	Cc1cccc(NC(c2ccc(C)s2)c2ccc3ccc(C)nc3c2O)n1 (centres undefined)
assay / entry	11	12	13	14	15	16	17	18	19	20
N370S GC mod	-8.7%	·	2.8%	-3.3%	11.5%	·	-4.2%	3.5%	17.8%	-4.8%
FEN1 inhibitor	15.2%	0.1%	-1.3%	-7.8%	2.0%	0.5%	-11.3%	-2.8%	-0.2%	5.5%

21	CCOc1ccc(CNC(=O)CCCOc2cc(=O)n(C)c3ccccc23)cc1
22	CCCC(=O)Nc1ccc(Cl)c(NC(=O)c2ccco2)c1
23	CCc1cccc(CC)c1NC(=O)CNCc1cccs1
24	Cc1cc(C)c2c(=O)cc(C(=O)Nc3ccc(C)c(Cl)c3)oc2c1
25	CCN1C(C)=C(C(=O)OC)C(c2ccccc2)N2C(=O)[C@@]3(C(=O)OC)O[C@@]12C1C(=O)CCCC13 (some centres undefined)
26	CCCCOc1ccc(NC(=O)CSCC(=O)OCC)cc1
27	CN(CC(O)Cn1c2ccccc2c2ccccc21)S(C)(=O)=O (centres undefined)
28	CC[C@@]1(C(=O)OC)N[C@H](CN(C)C(=O)Nc2ccc(OC)cc2)[C@@H]2C(=O)N(Cc3ccccc3)C(=O)[C@@H]21
29	CCCCNC(=O)c1ccc(SCC(=O)N(CC)CC)c([N+](=O)[O-])c1
30	CCCCN(C(=O)CSc1nncn1-c1ccccc1OC)c1c(N)n(Cc2ccccc2)c(=O)[nH]c1=O
assay / entry	21	22	23	24	25	26	27	28	29	30
N370S GC mod	6.4%	-0.4%	?	·	0.4%[12.8 µM]	-2.7%	7.4%	·	22.0%	-5.7%
FEN1 inhibitor	-19.2%	3.6%	1.2%	17.1%	·	-4.1%	10.6%	-2.2%	-1.5%	4.9%

31	O=C(CN(C(=O)CCC(=O)Nc1nccs1)c1ccc(F)cc1)NCCc1ccccc1
32	N#Cc1cccc(NC(=O)COC(=O)c2ccccc2Sc2ccccc2C#N)c1
33	CCCOC(=O)c1c(NC(=O)C2C3C=CC(C3)C2C(=O)O)sc2c1CCC(C)C2 (centres undefined)
34	COc1ccc(CCN(C)CC(=O)Nc2c(C)cc(C)cc2C)cc1OC
35	COc1cccc(N2CCN(Cc3nc(N)nc(Nc4ccccc4)n3)CC2)c1
36	CC1=C2C(=COC(C)C2C)C(=O)C(C(=O)O)=C1O (centres undefined)
37	COc1ccc(S(=O)(=O)N2CCCC(C(=O)NCCC(C)C)C2)cc1 (centres undefined)
38	N#CCCN(C(=O)c1cc2c(s1)-c1ccccc1S(=O)(=O)C2)c1ccccc1
39	CC(C)OCCCNC(=O)Cn1ccc2cc(S(=O)(=O)N3CCCCCC3)ccc21
40	O=C(COC(=O)c1c2c(nc3ccccc13)CCCCC2)c1ccc(Cl)s1
assay / entry	31	32	33	34	35	36	37	38	39	40
N370S GC mod	-4.8%	26.9%	6.7%	-6.0%	-10.1%	-8.5%	11.1%	0.2%	-0.9%	?
FEN1 inhibitor	5.9%	23.1%	-2.3%	19.4%	-16.3%	·	3.1%	15.2%	-0.8%&-14.4%	-5.2%

41	COc1ccc(C2C(C(=O)Nc3ccccc3)=C(C)N=C3SCC(=O)N32)cc1 (centres undefined)
42	COc1ccc(NC(=O)c2c3c(nc4ccccc24)CCC3)cc1S(=O)(=O)N1CCOCC1
43	Cc1ccccc1-c1nc(CN2CCC(C(=O)NCc3cccs3)CC2)c(C)o1
44	CC(NC(=O)Nc1cccc(F)c1)c1ccc2c(c1)OCO2 (centres undefined)
45	CC(C)CCNC(=O)COC(=O)c1ccc(Br)o1
46	Cc1c(C(=O)C(=O)NCCCn2ccnc2)c2ccccc2n1C
47	CC(C)CC(=O)n1nc(-c2cccnc2)nc1NCc1ccc(F)cc1
48	COCCCNc1nnc(Cc2ccccc2)c2ccccc12
49	CC1CN(C(=O)COC(=O)c2cc(S(N)(=O)=O)c(Cl)cc2Cl)CC(C)O1 (centres undefined)
50	COc1ccc(/C=C/c2nc(C#N)c(NCCc3ccc(OC)c(OC)c3)o2)cc1OC
assay / entry	41	42	43	44	45	46	47	48	49	50
N370S GC mod	-4.0%	-5.5%	-1.7%[12.8 µM]	2.3%	22.0%	-9.2%	·	18.7%	-9.1%	·
FEN1 inhibitor	9.9%	-17.6%	-4.3%	-14.7%	6.1%	4.9%	-4.2%	15.0%	-11.2%	-34.6%

51	COc1ccc(/C=C/C(=O)c2ccc(NC3=NCCCS3)cc2)cc1OC
52	COc1ccc(NC(=O)c2ccccc2N2C(=O)C3C4C=CC(C5CC45)C3C2=O)c(OC)c1 (centres undefined)
53	COc1cccc(CC(=O)NCCCSc2ccccc2)c1
54	Cc1cc(NC(=O)c2c(Cl)cnn2C)no1
55	CCCOc1cccc(-c2nnc(N)s2)c1
56	CCCCC(=O)Nc1ncc2c(n1)CC(C)(C)CC2=O
57	CCCc1nc2ccccc2n1CC(O)COc1ccc(NC(C)=O)cc1 (centres undefined)
58	COCCCNC(=S)N(CCO)Cc1cc2cc3c(cc2[nH]c1=O)OCO3
59	Cc1cc(Oc2ccc(=O)n(C)n2)nc(Oc2ccc(=O)[nH]n2)n1
60	COc1ccccc1N1CCN(C(=O)c2cc3c(=O)n(Cc4ccco4)ccc3nc2C)CC1
assay / entry	51	52	53	54	55	56	57	58	59	60
N370S GC mod	?	-15.3%	-3.4%	-4.9%	8.6%	-3.3%	-17.7%	?	-3.9%	·
FEN1 inhibitor	-11.3%	13.4%	-1.0%	0.1%	-2.0%	9.1%	-3.6%	28.6%	2.2%	7.8%

Next section (4 carried over from the part before).
57	CCCc1nc2ccccc2n1CC(O)COc1ccc(NC(C)=O)cc1 (centres undefined)
58	COCCCNC(=S)N(CCO)Cc1cc2cc3c(cc2[nH]c1=O)OCO3
59	Cc1cc(Oc2ccc(=O)n(C)n2)nc(Oc2ccc(=O)[nH]n2)n1
60	COc1ccccc1N1CCN(C(=O)c2cc3c(=O)n(Cc4ccco4)ccc3nc2C)CC1
61	COc1ccc(C(=O)CC(=O)C(=O)Nc2cc(Cl)c(OC)cc2OC)cc1
62	CCOC(=O)N1CCN(C(=O)C(C)n2nc(C)n3c(cc4sccc43)c2=O)CC1 (centres undefined)
63	O=C(Nc1nc(-c2ccccc2)cs1)c1cccs1
64	CCCOC(=O)c1c(-c2ccc(C)cc2C)csc1NC(=O)C1C2CCC(O2)C1C(=O)O (centres undefined)
65	CC(Nc1ccc(F)cc1)=[N+](C)CCNS(=O)(=O)c1ccc(Cl)cc1
66	O=C(Nc1cccnc1)c1cccc(F)c1
67	CC(C)NC(=O)NC(=O)CSc1ccc(S(=O)(=O)N2CCOCC2)cn1
68	CCOC(=O)CC(NC(=O)c1cccc2c1C(=O)N(Cc1cccnc1)C2)c1ccc(OC(C)C)cc1 (centres undefined)
69	CCn1c(SCC(=O)N/N=C/c2ccc(C)o2)nnc1-c1ccc(C)cc1
70	N#C/C(=C\c1ccccc1)C(=O)N1CCN(c2ccccc2F)CC1
assay / entry	57	58	59	60	61	62	63	64	65	66	67	68	69	70
N370S GC mod	-17.7%	?	-3.9%	·	-5.9%	-0.2%	-17.5%	10.9%	-2.2%	-9.5%	-0.7%	0.6%	-5.5%	-10.2%
FEN1 inhibitor	-3.6%	28.6%	2.2%	7.8%	9.7%	12.2%	-5.2%	-2.5%	18.8%	0.3%	4.6%	-0.1%	7.3%	-22.6%

2 compounds picked at random from the list so far:
69	CCn1c(SCC(=O)N/N=C/c2ccc(C)o2)nnc1-c1ccc(C)cc1
67	CC(C)NC(=O)NC(=O)CSc1ccc(S(=O)(=O)N2CCOCC2)cn1
assay / entry	69	67
N370S GC mod	-5.5%	-0.7%
FEN1 inhibitor	7.3%	4.6%

(listing goes on)
71	CCOC(=O)c1cc(CC)sc1/N=C/C1=C(O)CC(C)(C)CC1=O
72	C=CC[C@@H](CC(=O)NCCO)C(=O)N[C@H](COC(=O)[C@H](CC=C)CC(=O)OC(C)(C)C)Cc1c[nH]c2ccccc12
73	O=C(COc1ccc(Br)cc1)N/N=C1\SCC(=O)N1c1ccc(F)cc1
74	CCN1C(=O)C2(/C(=C(\O)c3ccc4c(c3)OCCO4)C(=O)C(=O)N2CCCOC)c2ccccc21 (centres undefined)
75	Cc1ccc(-c2ccc(=O)n(CC(=O)NCCc3ccc(Cl)cc3)n2)cc1
76	Cc1ccc(C(=O)NCCc2cccs2)cc1
77	O=C(COC(=O)c1c(F)cccc1F)NCc1cccs1
78	CC(C)(C)C(=O)/C=c1\[nH]c(=O)/c(=C\c2ccccc2F)s1
79	COc1ccc(Cc2nc(-c3ccc(-n4cccc4)cc3)no2)cc1OC
80	N#Cc1cc(N2CCCCC2)c([N+](=O)[O-])cc1C#N
assay / entry	71	72	73	74	75	76	77	78	79	80
N370S GC mod	?	·	1.4%	?	·	11.9%	·	-3.5%	28.6%	8.1%
FEN1 inhibitor	4.3%	-3.2%	7.3%	1.8%	1.4%	-15.6%	-15.8%	2.2%	-13.6%	20.7%

81	CCOc1ccc(OCC(=O)OCC(=O)Nc2ccccc2C#N)cc1
82	Nc1nc(-c2ccco2)cs1
83	O=C(c1ccco1)N1CCN(C(c2ccccc2F)c2nnnn2Cc2cccs2)CC1 (centres undefined)
84	CN(c1ccccc1)c1nc(N)c([N+](=O)[O-])c(NCc2ccccc2)n1
85	CCCc1cc(=O)[nH]c(SCc2ccc(Cl)cc2)n1
86	CC(NC(=O)c1cc2cc([N+](=O)[O-])ccc2oc1=O)C1CCCO1 (centres undefined)
87	Cc1ccccc1NC(=O)CCSc1nnnn1-c1ccccc1
88	COc1ccc(CCNC(=O)CCC(=O)Nc2ccccc2[N+](=O)[O-])cc1OC
89	C=CC[C@@H](CC(=O)N(CCO)Cc1ccccc1)C(=O)NC[C@H](OC(=O)[C@@H](CC=C)Cc1ccc(F)cc1)c1ccccc1
90	Cc1ccc(C(=O)NNC(=O)CSc2nnc(-c3ccncc3)n2-c2ccc(C)cc2)cc1
91	NC(Cc1ccc(O)cc1)c1cn([C@@H](CCC(=O)O)C(=O)N2CCNCC2)nn1 (some centres undefined)
92	CCOC(=O)N1CCC(c2[nH][nH]c(=O)c2C)CC1
93	O=C(Cc1c(F)cccc1Cl)Nc1ccncc1
assay / entry	81	82	83	84	85	86	87	88	89	90	91	92	93
N370S GC mod	1.9%	1.2%	2.6%	-2.5%	7.2%	-12.6%	9.9%	1.9%	·	0.1%	-2.0%	1.3%	0.2%
FEN1 inhibitor	5.7%	12.2%	-5.8%	-12.5%	14.3%	-0.5%	11.3%	15.7%	-6.5%	·	1.3%	-11.9%	-6.4%

A portion of the library, and most or all hits are left out here.
